Bioassay records: PubChem BioAssay, National Center for Advancing Translational Sciences (NCATS)
Rango complex inh = inhibitors of Rango-importin beta complex formation | Q14974 | Rango CFP/YFP FRET sensor + importin beta, 45 min | Potency, µM (titrated, usually from 92.2 µM), inactives show top-dose inhibition of complex formation | 340,000 compounds, 0.031% hits | AID 540263; active = rising FRET ratio curve, often small or poorly fitted; inconclusive = mostly compound fluorescence or quenching in the first reads; inactive = flat curves in all reads;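 note: potency is the fitted concentration of half-maximal effect; 0% = DMSO wells and 100% = buffer wells lacking importin beta; nearly all actives have a fitted effect of over 15% in size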
Target sequence (Q14974 whole entry, looked up): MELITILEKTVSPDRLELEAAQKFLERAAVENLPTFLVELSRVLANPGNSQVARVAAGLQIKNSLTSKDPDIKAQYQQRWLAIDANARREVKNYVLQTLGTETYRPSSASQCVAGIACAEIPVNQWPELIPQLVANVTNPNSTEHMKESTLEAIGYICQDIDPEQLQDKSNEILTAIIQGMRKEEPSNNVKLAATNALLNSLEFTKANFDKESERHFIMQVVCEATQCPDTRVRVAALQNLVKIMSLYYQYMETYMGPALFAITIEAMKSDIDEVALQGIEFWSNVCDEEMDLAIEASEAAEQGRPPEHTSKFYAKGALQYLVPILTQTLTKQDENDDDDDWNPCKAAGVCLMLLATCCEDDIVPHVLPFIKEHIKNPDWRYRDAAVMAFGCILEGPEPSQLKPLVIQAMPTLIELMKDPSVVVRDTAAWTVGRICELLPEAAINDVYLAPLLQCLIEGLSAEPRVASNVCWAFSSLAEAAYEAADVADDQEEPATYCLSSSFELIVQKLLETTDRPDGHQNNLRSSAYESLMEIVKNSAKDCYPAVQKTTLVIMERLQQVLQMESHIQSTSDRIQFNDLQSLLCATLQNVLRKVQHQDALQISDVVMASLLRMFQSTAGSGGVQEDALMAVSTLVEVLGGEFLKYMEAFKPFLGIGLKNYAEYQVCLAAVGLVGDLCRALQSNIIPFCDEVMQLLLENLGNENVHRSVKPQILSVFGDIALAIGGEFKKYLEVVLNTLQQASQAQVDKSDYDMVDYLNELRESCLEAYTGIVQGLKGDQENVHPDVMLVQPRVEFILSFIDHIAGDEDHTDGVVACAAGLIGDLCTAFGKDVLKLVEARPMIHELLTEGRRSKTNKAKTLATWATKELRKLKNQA
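Inhibition scored from the CFP 486 nm/YFP 530 nm FRET ratio 45 min after adding 0.125 microM importin beta to 50 nM Rango biosensor preincubated 5 min with compound (room temperature, PBS with DTT, Tween-20, BSA). No-importin wells as positive control.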
GLA inh pH 4.5 = blocks human alpha-galactosidase A at pH 4.5; P06280; purified enzyme, 4-MU-alpha-Gal fluorescence, pH 4.5; activity change, negative = inhibition, % at 105 µM; 230,000 tested, under 10 active; AID 1467; inconclusive = small, poorly fitted or top-dose-only inhibition, or a rising curve; inactive = flat fitted curve, though single readings scatter; no compound was filed as active;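 note: 0% = full activity with enzyme and -100% = basal without enzyme; dose as in the result columns while the protocol names 77 µM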
miR-21 FLuc = miR-21 reporter, rising signal | HeLa miR-21 FLuc reporter, luciferase, 48 h | 340,000 tested, under 10 active | Potency, µM (doses to about 38.3 µM), inactives show at the highest dose reporter change, positive = more light; active = well fitted rising curve with a large enough effect; inconclusive = small, poorly fitted or top-dose-only effect; inactive = no such curve, though single readings can be large or run the other way;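 note: % of control where 0% means no effect; miR-21 action dims this reporter so a rising signal means less miR-21 action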
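Using DMEM plus 10% FBS, HeLa miR-21-FLuc cells are incubated with test compounds (final up to about 40uM) for 48 hours; firefly luciferase signal is then imaged following reagent-mediated lysis.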
Rango dissoc inh = prevents RanGTP from dissociating the Rango-importin beta complex; Biochemical FRET Rango-importin beta, RanGTP-induced dissociation; O95149+P62826; AID 540253; 340,000 compounds, 0.071% hits; Potency, µM (highest dose often 46.1 µM), inactives show top-dose activity change, negative = inhibition; active means falling FRET ratio curve, often poorly fitted, with flat reads before Ran was added; inconclusive means other falling curves, or compound fluorescence or quenching; inactive means flat or rising ratio curve;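 note: potency is the fitted concentration of half-maximal effect; % of control where 0% means no effect; nearly all actives have a fitted effect of over 45% in size; -100% = wells without RanGTP and RCC1; the record marks most hits as doubtful in a second field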
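Quantitative HTS using a FRET biosensor: 0.1 uM Rango, 0.25 uM importin beta, 0.6 uM Ran, 2 mM GTP, 0.2 uM RCC1 final, PBS with DTT, Tween-20 and BSA. Post-read taken 45 min after Ran addition.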
Starred values were filed as active, the others as inactive; ? = inconclusive; · = no result given; & = joins results of further samples. Not all compounds are listed, so the mix of outcomes need not match the whole.

GLA inh pH 4.5,Rango complex inh,miR-21 FLuc,Rango dissoc inh,Structure
2,3.0%,-14%,10%,COc1ccc(CCNC2=NCC(C)S2)cc1 (stereo not drawn)
3,?,-27%,7%,O=C(N/N=C/c1ccc(Cl)cc1Cl)Nc1ccccc1
·,-0.4%,·,1%,Cc1ccc(S(=O)(=O)N2[C@@H](c3cccc(Cl)c3)C(C(=O)O)=CC[C@H]2c2ccc(Cl)cc2)cc1
-2,?,-13%,-17%,CCn1c(C)cc(/C=C2\SC(=O)N(CC(=O)Nc3ccc(C)c(C)c3)C2=O)c1C
-5,-1.9%,-8%,-8%,C/C(=N/NC(=O)CN1CCN(S(=O)(=O)c2ccc(C)cc2)CC1)c1cccc(O)c1
·,-1.0%,·,-3%,COc1ccc(CNC(=O)COC(=O)c2cc(C)nc3ccccc23)cc1
·,-3.6%,7%,6%,COc1cc(C(=O)NCCCc2ccccc2)cc(OC)c1OC
·,-1.8%,2%,-5%,O=C(Cc1ccccc1)Nc1ccc(S(=O)(=O)N2CCCC2)cc1
·,3.1%,·,6%,CCCCn1c(N)c(N(CCOC)C(=O)c2ccc(COc3ccccc3)o2)c(=O)[nH]c1=O
-15,-1.6%,-10%,3%,CCOc1ccc(NC(=O)C2CC(C)=C(C)CC2C(=O)O)cc1 (stereo not drawn)
-22,3.1%,1%,0%,S=C(Nc1cccc(Cl)c1)NC1CCCCC1
·,1.2%,-4%,2%,Cc1cc(C)c(C)c(S(=O)(=O)N2CCN(c3ccccn3)CC2)c1C
·,0.0%,·,-2%,Clc1ccc(Cc2ccccn2)cc1
3,5.4%,-3%,13%,CCOC(=O)c1cnc2c(c(C)nn2CC)c1Cl
·,0.7%,·,-1%,O=C(COC(=O)c1cccc(F)c1)Nc1ccc(Cl)cn1
-13,-2.3%,-4%,1%,COC(=O)c1c(C(=O)OC)c(-c2cccc(C)c2)n2c1CS(=O)(=O)C2
-4,0.3%,-3%,-23%,Cc1c(C(C)C)c(=O)n(-c2ccc(S(=O)(=O)NC3CC3)cc2)n1C
-5,-0.2%,27%,1%,O=C(CCc1ccc(S(=O)(=O)N2CCOCC2)cc1)Nc1nc(COc2ccccc2)cs1
-8,0.1%,-2%,-11%,N#CCCN(C(=O)Nc1ccccc1)c1ccccc1
·,3.5%,2%,19%,Cc1ccc2c(c1)N(C(=O)CCC(=O)N1CCN(c3ccccn3)CC1)CCO2
2,·,-2%,·,COC(=O)n1c(=S)oc2cc(Cl)ccc21
-9&7,1.8%,·,-2%,Cc1c(C)c2c(c(C)c1O)CC[C@@](C)(CCC[C@H](C)CCC[C@H](C)CCCC(C)C)O2
-1,6.7%,-29%,12%,Cc1cc(CSc2nc(C)cc(=O)[nH]2)c2ncccc2c1
·,-4.2%,·,1%,Cc1ccc2c(c1)N(CC(=O)Nc1nccs1)C(=O)CO2
·,7.2%,-7%,27%,CCC(C)c1ccc(S(=O)(=O)N2CCN3CCCC3C2)cc1 (stereo not drawn)
·,-2.8%,-10%,?,Cc1cc(-c2ccccc2)nc(N/N=C/c2ccccc2F)n1
-5,-5.0%,-24%,-21%,CCCSc1nc(NCc2ccco2)c2c3c(sc2n1)COC(C)(C)C3
-11,-0.4%,-2%,-10%,CSc1nc(C)c(CCO)c(=O)[nH]1
3,4.4%,0%,0%,CC1CCC(NC(=O)CC2Oc3ccccc3NC2=O)CC1 (stereo not drawn)
8,1.9%,-5%,24%,Cc1cc(C)cc(OCC(=O)NN2Cc3ccccc3C2=N)c1
-9,-5.4%,2%,-6%,Cc1cc(C2=NNC(=Nc3ccc(S(=O)(=O)N4CCOCC4)cc3)SC2)c(C)n1CC1CCCO1 (stereo not drawn)
·,5.3%,·,13%,Cc1c(Cl)cccc1NC(=O)C1CC2CCC1C2 (stereo not drawn)
·,-0.4%,·,-2%,CCC(C)NC(=O)c1ccc(NC(=O)CC2SC(N3CCCC3)=NC2=O)cc1 (stereo not drawn)
-1,-2.5%,10%,-2%,CCOC(=O)c1ccc(CSC(=N)N)o1
·,2.8%,-8%,-19%,CC(C)(C)c1ccc(OCC(=O)Nc2ccncc2)cc1
·,-3.3%,11%,-12%,COc1cccc(NS(=O)(=O)c2ccc(C)c(C(=O)N3CCCCC3)c2)c1
·,0.9%,-11%,1%,CC(C)c1ccc(NC(=O)C2CCC(CNC(=O)[C@@H]3Cc4ccccc4CN3)CC2)cc1 (stereo partly drawn)
·,2.3%,·,-6%,Cc1ccc(N2CC(C(=O)OCC(=O)c3ccc(C)c([N+](=O)[O-])c3)CC2=O)cc1 (stereo not drawn)
-7,0.6%,-24%,-8%,O=C1OC(c2ccccc2)=C/C1=C/c1cccs1
4,?,2%,?,O=C1CCCC2=C1C(c1ccncc1)c1c(nc(SCc3ccccc3)[nH]c1=O)N2 (stereo not drawn)
·,-0.6%,4%,-9%,Cc1ccc(Cn2ncc3c(NN)ncnc32)cc1
1,-0.9%,-2%,-7%,CCNC(=O)CC1C(=O)N(c2ccccc2)C(=O)N1CCc1ccc(OC)cc1 (stereo not drawn)
5,-0.2%,-2%,-2%,Cc1cc(C)c(C)c(S(=O)(=O)NCC(=O)O)c1C
-7,-3.7%,10%,-7%,CCNC(=S)NNC(=O)C1CCCCC1
0,-3.6%,11%,-13%,Cc1csc(N/N=C/c2ccccn2)n1
·,-2.5%,-1%,-6%,CC(=O)Nc1ccc(N(CC(=O)NC2CCCC2)C(=O)CCC(=O)Nc2cc(C)on2)cc1
6,0.1%,1%,-4%,Cc1cc(C)n(CC(=O)N/N=C/c2cc([N+](=O)[O-])ccc2O)n1
·,-5.9%,·,?,Cc1cc2c(cc1C)NC1(C[C@H]3CCC(=O)N4CC[C@@H](C1)[C@@H]34)C(=NC(C)(C)CC(C)(C)C)N2 (stereo partly drawn)
-5,-1.3%,-63%,0%,O=C(/C=C/c1ccccc1)NC1CC2CCC1C2 (stereo not drawn)
-8,0.5%,3%,-4%,FC(F)(F)c1cccc(Sc2nc(-c3ccccc3)nnc2C(F)(F)F)c1

Some of these compounds in order of the Rango complex inh value, low to high:
GLA inh pH 4.5,Rango complex inh,miR-21 FLuc,Rango dissoc inh,Structure
·,-3.3%,11%,-12%,COc1cccc(NS(=O)(=O)c2ccc(C)c(C(=O)N3CCCCC3)c2)c1
-5,-1.9%,-8%,-8%,C/C(=N/NC(=O)CN1CCN(S(=O)(=O)c2ccc(C)cc2)CC1)c1cccc(O)c1
·,-1.8%,2%,-5%,O=C(Cc1ccccc1)Nc1ccc(S(=O)(=O)N2CCCC2)cc1
5,-0.2%,-2%,-2%,Cc1cc(C)c(C)c(S(=O)(=O)NCC(=O)O)c1C

Other entries:
GLA inh pH 4.5,Rango complex inh,miR-21 FLuc,Rango dissoc inh,Structure
·,-0.9%,·,1%,COc1ccc(S(=O)(=O)Nc2ccc3c(c2)C(=O)N([C@H](C)CO)C[C@H](C)[C@@H](CN(C)S(C)(=O)=O)O3)cc1
7,-0.1%,2%,-11%,FC(F)(F)c1ccccc1NC1=NCCC1
·,0.0%,-3%,13%,Cc1noc(/C=C/c2ccccc2F)c1S(=O)(=O)N1CCC(C(=O)N2CCN(C)CC2)CC1
·,7.0%,0%,16%,COC(=O)CSc1nnc(-c2ccc(S(=O)(=O)N3CCCC3)cc2)o1
·,-1.2%,2%,19%,CC(O)[C@H](NC(=O)C1CCN(C(=O)[C@H](Cc2ccccc2)NC(=O)OC(C)(C)C)CC1)C(=O)O (stereo partly drawn)
1,0.5%,?,0%,CC1=C/C(=N\OS(=O)(=O)c2ccccc2)C(C(C)C)=CC1=O
10,3.0%,25%,15%,CC(NC(=O)CN1C(=O)NC(Cc2ccccc2)(Cc2ccccc2)C1=O)C12CC3CC(CC(C3)C1)C2 (stereo not drawn)
3,0.1%,-20%,28%,Cc1cc(C(=O)CSc2nnc(N)s2)c(C)n1Cc1ccco1
-14,6.1%,-3%,3%,COc1cccc(C=Nc2cc(C)on2)c1O
6,-1.9%,3%,12%,O=C(Nc1nnc(SCc2ccc(F)cc2)s1)c1cnccn1
-14,0.0%,-5%,-5%,Cc1nc(NC(=O)C2CC2)sc1C(=O)N(C)C
-2,-2.7%,-2%,-6%,O=C(NCCCN1CCN(c2ccc(F)cc2)CC1)c1cccc(N2CCCC2=O)c1
·,-1.3%,·,-7%,C=C1c2ccccc2O[C@H](C(=O)OCC)[C@H]1OC
-1,0.3%,-1%,-2%,CC1(NC(=O)Nc2ccccc2)CCS(=O)(=O)C1 (stereo not drawn)
·,-0.7%,2%,-3%,COc1ccc(C(=O)NCc2nnc(SCC(=O)Nc3cc(Cl)ccc3OC)o2)cc1
-8,-0.4%,-34%,2%,Cc1c(NC(=O)c2ccccc2)cccc1[N+](=O)[O-]
·,?,-12%,?,COc1cc(/C=C/c2nc3ccccc3c(=O)[nH]2)cc(Br)c1O
-9,-4.7%,-7%,-1%,CN1C(=O)CSc2ccc(NC(=O)N3CCc4ccccc43)cc21
2,?,7%,-7%,COc1cccc2sc(Nc3nnc(-c4ccccc4Cl)o3)nc12
2,0.4%,2%,15%,CN(C)c1ccc(NC(=O)/C=C/c2c(Cl)cccc2Cl)cc1
-7,3.1%,1%,22%,COc1ccc(C2CC(=O)C(C3NCCc4ccccc43)=C(O)C2n2cncn2)cc1 (stereo not drawn)
0,·,-5%,·,CCN(CC)c1ncnc2c1sc1nc(N3CCOCC3)c3c(c12)CCC3
2,0.2%,-3%,-1%,O=C(CN1C(=O)NC2(CCCCC2)C1=O)Nc1ccc(F)cc1
11,-1.1%,0%,-9%,COCCSc1ccccc1C(=O)NCc1ccc(S(N)(=O)=O)cc1
-1,-1.0%,0%,0%,CCCc1cc(=O)[nH]c(SCC(=O)Nc2nonc2N)n1

The closing 3 records of the section before open the next one.
GLA inh pH 4.5,Rango complex inh,miR-21 FLuc,Rango dissoc inh,Structure
2,0.2%,-3%,-1%,O=C(CN1C(=O)NC2(CCCCC2)C1=O)Nc1ccc(F)cc1
11,-1.1%,0%,-9%,COCCSc1ccccc1C(=O)NCc1ccc(S(N)(=O)=O)cc1
-1,-1.0%,0%,0%,CCCc1cc(=O)[nH]c(SCC(=O)Nc2nonc2N)n1
·,-2.7%,-2%,-10%,O=c1c([N+](=O)[O-])c(O)c2ccccc2n1Cc1ccccc1
7,-0.6%,-4%,-16%,COc1cc(OC)cc(C(=O)N(CN2CCCC2=O)c2ccccc2OC)c1
1,-0.1%,-5%,-1%,O=C(O)CCS(=O)(=O)Cc1ccccc1F
·,-1.5%,·,-10%,Cc1ccc(SCC(=O)N2CCN(c3ccc(F)cc3)CC2)cc1
-5,-1.2%,-4%,-6%,Cc1cccc(N2C(=O)CCC2=O)n1
·,-0.3%,·,32%,Cc1cc(NC(=O)COc2ccccc2C#N)no1
-1,2.0%,0%,17%,O=C(COC(=O)c1ccc(S(=O)(=O)Nc2ccccc2)cc1)NCC1CCCO1 (stereo not drawn)
-4,?,-1%,-4%,CC(C)=CCSc1nnc(CCNC(=O)OC(C)(C)C)o1
3,-2.6%,-60%,6%,CC(=O)Nc1ccc(OCC(O)Cn2ccnc2)cc1 (stereo not drawn)
-1,3.1%,-55%,3%,Cc1ccsc1/C=N/Nc1nc2ccccc2[nH]1
-3,?,-22%,-4%,Cc1ccc2c(CN3CCCc4ccccc43)cc(=O)oc2c1C
?,?,16%,?,CCn1c(=N)c(C(=O)NCCCOC)cc2c(=O)n3cccc(C)c3nc21
·,0.3%,0%,-3%,CC(=O)C1=C(O)C(=O)N(c2cccc(Br)c2)C1c1ccc(Br)cc1 (stereo not drawn)
·,1.2%,-2%,-4%,O=C(NCc1ccncc1)C(=O)NCC1OCCCN1S(=O)(=O)c1ccc(F)cc1 (stereo not drawn)
·,-0.3%,·,2%,CN(c1cccc(Cl)c1)S(=O)(=O)c1cccc(C(=O)NN2CCOCC2)c1
-11,-2.5%,-2%,-4%,CCCCn1c(=O)c(CCC(=O)OCC(=O)Nc2ccc(F)c(Cl)c2)nc2ccccc21
-4,-2.9%,-7%,0%,CCOC(=O)c1c(NC(C)=O)sc2c(O)c(Br)ccc12
2,-3.7%,-17%,-6%,CC(C)c1ccc(NC(=S)NNC(=O)C2CC2)cc1
